HSD17B inhib: blocks hydroxysteroid 17-beta dehydrogenase activity; recombinant HSD17B10, NADH fluorescence kinetic; many of its hits are not listed in these tables; Potency, µM (series often up to 57.1 µM), for inactives: top-dose activity change, negative = inhibition, usual class: inhibitors; 75,000 tested, 7.6% active; active = well fitted inhibition curve with a large enough effect; inconclusive = small, poorly fitted or top-dose-only effect; inactive = no such curve, though single readings can be large or run the other way;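 also: the protocol describes HADH2 (HSD17B10) and not the HSD17B4 of the title; nearly all actives have a fitted effect of over 70% in size; most hits overshoot -100% by far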
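20 nM HADH2, pH 9.0 Tris/Tween; cpd preinc 15 min RT; start w/ 1 mM NAD+ + 90 uM b-hydroxybutyryl-CoA; kinetic fluor ex360/em450 q30s x 4 min; delta last-first.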
An asterisk follows results filed as active; ? = inconclusive; & = joins results of further samples; [ ] = another dose, or the depositor's remark. % is scaled to controls: 0 for no effect and ±100 for the full control effect; potency is read from the fitted curve at half-maximal effect. An excerpt (hit frequency here may not be typical).

| Molecule | HSD17B inhib |
| --- | --- |
| CN(C)c1nc(OCCNC(=O)COc2ccc(Cl)cc2Cl)nc(N2CCOCC2)n1 | -3.0% |
| Cc1cc(C(=O)OCC(=O)NCc2ccco2)c(C)n1-c1ccc(F)cc1 | -26.1% |
| COc1cc(C2=NOC(C(=O)NC3CCCCC3)C2)cc(OC)c1OC (stereo not drawn) | -4.5% |
| CCCOc1ccc(N2C(=O)CC(N3CCCC(C(=O)N4CCCC4)C3)C2=O)cc1 (stereo not drawn) | -3.2% |
| COc1ccccc1NC(=O)c1cc(Sc2nncn2C)nc2ccccc12 | -0.2% |
| O=C(CSc1nnc(-c2ccccc2O)o1)N1CCc2ccccc2C1 | -4.6% |
| Cc1noc(C)c1CSc1nc2ccccc2nc1NS(=O)(=O)c1ccc(Cl)cc1 | ? |
| O=C(O)/C=C\[C@H](O)c1ccc(Cl)cc1 | -2.6% |
| CC1(C)CC2CC(C)(CN2C(=O)C23CCC(C)(C(=O)O2)C3(C)C)C1 (stereo not drawn) | 4.4% |
| CCc1nc2ccccc2n1CC(=O)N(C(C)CC)C1CCS(=O)(=O)C1 (stereo not drawn) | 0.0% |
| N#Cc1cccc(-c2nccc(-n3ccnc3)n2)c1 | ? |
| Cc1onc(-c2ccccc2Cl)c1C(=O)NCCn1c(C)cc2ccccc21 | ? |
| CSc1cccc(NC(=O)COc2ccccc2)c1 | -0.7% |
| Cc1cc(NC(=O)c2ccco2)ncc1NC(=O)CCc1ccccc1 | 4.2% |
| CCN(CC)CCCC(C)n1c(-c2ccccc2)nc2c(NCCOC)nc(C)nc21 (stereo not drawn) | 25.1µM* |
| COc1ccc(-n2c(Cc3cccn3C)nnc2SCC(=O)Nc2ccccc2F)cc1 | -0.3% |
| CC(=O)C(Sc1nn(C)c(=S)s1)C(=O)Nc1ccccc1 (stereo not drawn) | -15.0% |
| O=C(O)CN1CCN(Cc2ccc(F)cc2Cl)C1=O | 1.5% |
| COc1ccccc1-c1noc(CCC(=O)Nc2cccc(C)c2)n1 | -3.5% |
| CC(=O)Nc1coc2ccc(Br)cc12 | 12.1% |
| O=C(COC(=O)C1CC(=O)N(c2ccc3c(c2)OCCO3)C1)NC1CCCc2ccccc21 (stereo not drawn) | -1.4% |
| O=C(NC1CCN(Cc2ccccc2)CC1)C1CCCN(S(=O)(=O)c2cccc3nonc23)C1 (stereo not drawn) | -4.0% |
| CC(=O)N1C(=O)N(C)C2C1N(C)C(=O)N2C(C)=O (stereo not drawn) | -5.5% |
| CCOC(=O)c1cccc(NC(=O)CN(c2ccc(C)cc2)S(=O)(=O)c2c(C)n[nH]c2C)c1 | -11.4% |
| CCCC(=O)Nc1c(C(=O)OCC)[nH]c2ccccc12 | ? |

Gathered by group, the compounds so far containing a COOH group (2)
| Molecule | HSD17B inhib |
| --- | --- |
| O=C(O)/C=C\[C@H](O)c1ccc(Cl)cc1 | -2.6% |
| O=C(O)CN1CCN(Cc2ccc(F)cc2Cl)C1=O | 1.5% |

Further results.
| Molecule | HSD17B inhib |
| --- | --- |
| CNc1nc(-c2cccc(C#N)c2)nc2ccccc12 | -17.0% |
| C[C@@H]1CNCCN1S(=O)(=O)c1cccc2cnccc12 | -9.6%&-20.6% |
| O=S(=O)(c1ccccc1)N1CCC2(CCN(C(c3ccccc3)c3ccccc3)CC2)CC1 | 0.5% |
| NC(=O)c1cc(S(=O)(=O)Nc2cccc(F)c2)co1 | 2.5% |
| Cc1sc2nc(CN(C(=O)c3cccs3)C3CCCC3)[nH]c(=O)c2c1C | -4.7% |
| CC1(C)CC(=O)C2=C(C1)N(c1ccc(F)cc1)C(=O)CC2c1cccnc1 (stereo not drawn) | 4.3% |
| COc1cc2c(cc1OC)C(C)N(C(=O)c1cc3ccccc3o1)CC2 (stereo not drawn) | -4.9% |
| Cc1cc(OCCCCCNCCO)ccc1Cl | 3.5% |
| CCC1=C2CC[C@H]3C(=O)N(c4ccccc4)C(=O)[C@H]3[C@H]2[C@@]2(C)C(=O)N(Cc3ccccc3)C(=O)N2C1=O | -4.3% |
| CCOC(=O)N1CCN(c2c(N3CCC(N4CCCCC4)CC3)c(=O)c2=O)CC1 | 8.5% |
| CCN(CC)CCNC(=O)Cn1cnc2sc(C)c(S(=O)(=O)N3CCOCC3)c2c1=O | 11.9% |
| O=C(CSc1nnc(CSc2nc3ccccc3s2)o1)NC1CCCCC1 | 0.0% |
| CCn1c(=O)c(C(=O)NCc2ccc(OC)cc2)c(O)c2ccccc21 | -17.8% |
| Cc1ccc(C)c(NC(=O)CSc2nnc(CSc3nc(C)cc(C)n3)n2Cc2ccco2)c1 | -6.0% |
| CC1CCCCN1CCCNC(=O)c1ccc(-n2c(=O)c(=O)[nH]c3ccccc32)cc1 (stereo not drawn) | 5.6% |
| Cn1c(=O)[nH]c(=O)c2c1nc(Br)n2CCCO | 9.1% |
| Cc1cc(NC(=O)c2ccc3c(c2)OCCO3)no1 | 4.2% |
| Cc1ccc(S(=O)(=O)CC2CSc3nc(N)cc(=O)n32)cc1 (stereo not drawn) | 5.6% |
| N#Cc1cccc(NC(=O)N2CC3(CCN(C(=O)c4cnccn4)CC3)C2)c1 | 3.8% |
| COc1ccc(-c2oc3ncnc(NCCN4CCOCC4)c3c2-c2ccc(OC)cc2)cc1 | 25.1µM* |
| FC(F)(F)c1ccccc1-c1nc(NC2CC2)c2ccccc2n1 | ? |
| COc1cccc(OC)c1NC(=O)C1CCCN1C(=O)NCc1ccccc1 (stereo not drawn) | 3.2% |
| CN1CCN(c2ccc(Cl)cc2NC(=O)C2COc3ccccc3O2)CC1 (stereo not drawn) | 17.5% |
| O=c1[nH]c2cc3c(cc2cc1CN(CC1CCCO1)S(=O)(=O)c1ccccc1)OCCO3 (stereo not drawn) | 31.6µM* |
| CCOC(=O)C1C(=O)NC(N2CCCCC2)=NC1c1ccccc1 (stereo not drawn) | -7.6% |

| Molecule | HSD17B inhib |
| --- | --- |
| Cc1ccc(NCc2nnc(SCC(=O)N3CCCc4ccccc43)o2)c(C)c1 | -3.9% |
| Cc1cc(N2CCOCC2)n2nc(C)c(-c3ccccc3)c2n1 | 6.9% |
| CCOc1ccc(NC(=O)c2ccccc2OC)cc1 | -19.8% |
| Cc1ccc(NC(=O)C2CCN(S(=O)(=O)c3c(C)n[nH]c3C)CC2)nc1 | 1.5% |
| CCCn1c(Nc2nc3ccccc3n2C)nc2ccccc21 | ? |
| O=C(O)CCCC(=O)Nc1ccccc1C(=O)N1CCCC1 | -1.8% |
| Cn1nnnc1SCCNCc1ccncc1 | 1.1% |
| Cc1cc(Cl)c(S(=O)(=O)N2CC(C)OC(C)C2)cc1OCC(N)=O (stereo not drawn) | 6.4% |
| COCCN1C(=O)c2ccccc2C(C(=O)NCCCN2CCCC2=O)C1c1c[nH]c2ccccc12 (stereo not drawn) | -5.5% |
| Cc1cc(C)n(C(=O)CCCC(=O)n2nc(C)cc2C)n1 | -6.2% |
| COC(=O)c1ccc(NC(=O)CN2CCOCC2)cc1 | 0.6% |
| COC(=O)CSc1nc(NCC(C)C)nc(N2CCOCC2)n1 | 5.6% |
| Cc1ccc(-c2csc(N(CCCN3CCOCC3)C(=O)c3ccco3)n2)cc1 | 15.8% |
| O=C(Nc1cccc(-c2cn3ccccc3n2)c1)c1cnccn1 | 13.0% |
| O=C(Nc1ccc(NC(=O)C2CC2)nc1)c1cccnc1 | -12.0% |
| COc1ccc(-c2nnc(NC(=O)c3ccc(S(=O)(=O)N4CCCc5ccccc54)cc3)o2)cc1 | 25.1µM* |
| Cn1c(=O)oc2cc(S(=O)(=O)NCCc3ccccc3)ccc21 | 14.1% |
| O=C(COc1ccccc1)N1CCN(C(=O)Cc2ccccc2)CC1 | -2.9% |
| Cc1nc2ccccc2nc1N1CCCC1 | 0.5%[11.4 µM] |
| Cc1nc2ccc(-c3ccccc3)cc2o1 | -5.2% |
| CCOc1ccccc1N(CC(=O)NC1CCCCC1)C(=O)CCCC(=O)Nc1ccccn1 | -2.3% |
| Cc1ccc(N2CCN(CC3CC=CCC3)CC2)cc1 (stereo not drawn) | -5.3% |
| Cc1nn(-c2ccccn2)c2nc(-c3cccs3)cc(C(=O)N3CCOCC3)c12 | 31.6µM* |
| COc1ccc(C(=O)CN2C(=O)c3ccccc3C2=O)c(OC)c1C | 1.7% |
| CCSC(=Nc1ccccc1)C1=C(O)COC1=O | -6.2% |

| Molecule | HSD17B inhib |
| --- | --- |
| COc1ccc(Cl)c(NC(=O)NCCN2CCN(c3ccccc3)CC2)c1 | -4.2% |
| CC(C)(C)c1cc(CN2CCN(CCC#N)CC2)cc(C(C)(C)C)c1O | 7.6% |
| O=C(CN1C(=O)CSC1=O)Nc1ccccc1F | -4.5% |
| COc1ccc(-c2ccc(-c3nnn(CC(=O)N4CCOCC4)n3)cc2)cc1 | 20µM* |
| CC1CCCN(C(C(=O)Nc2ccc3c(c2)OCCO3)c2ccccc2)C1 (stereo not drawn) | -9.2% |
| CCOC(=O)N1CCN(C(=O)CSCc2nc(-c3ccccc3C)oc2C)CC1 | -9.4% |
| O=C(NCCN1C(=O)C2C3C=CC(C3)C2C1=O)NCc1ccccc1 (stereo not drawn) | 9.3% |
| Cc1ccc2[nH]c(=O)c(-c3nc4c(C)cccn4c3NCc3ccco3)cc2c1 | ? |
| O=C(NCCN1CCN(c2ccccc2)CC1)c1ccc(NC(=O)C2CCCO2)cc1 (stereo not drawn) | 5.1% |
| O=C(CN1C(=O)COc2ccccc21)NCCCN1CCc2ccccc2C1 | -21.6% |
| Cc1ccccc1-c1cc(N(C)Cc2ccco2)ncn1 | -12.7% |
| Cn1c(=O)c2c(ncn2Cc2cc(-c3ccccc3)no2)n(C)c1=O | 11.7% |
| CC(C)N(Cc1cc2ccccc2[nH]c1=O)C(=O)c1cccnc1 | -28.1% |
| COc1ccc(N(CC(=O)Nc2cc(C(=O)O)ccc2C)S(=O)(=O)c2c(C)noc2C)cc1 | 12.9% |
| CCC/C(=C1/C(=O)CC(C)(C)C(C(=O)OC)C1=O)N1CCCC1 (stereo not drawn) | -1.7% |
| Cc1cc(C)nc(N2CCC(C(=O)O)CC2)n1 | ? |
| COc1cccc(CNC(=O)Cn2cccc2)c1 | 3.2% |
| O=C(Nc1c(C(=O)NCc2ccco2)cnn1-c1ccccc1)c1ccc(F)cc1 | 0.7% |
| Cc1ccc(-c2nn3c(C)nnc3s2)cc1NC(=O)C(C)C | -0.8% |
| Cc1noc(C)c1S(=O)(=O)N(CC(=O)Nc1ccc2c(c1)OCCO2)c1ccc(C(C)C)cc1 | 2.3% |
| CC1CCc2c(sc3nc(SCc4nc(-c5ccccc5)no4)n(C)c(=O)c23)C1 (stereo not drawn) | -2.0% |
| Cc1cc(C)n(C(=O)c2ccc(C)c(S(=O)(=O)N3CCOCC3)c2)n1 | -7.6% |
| Cc1nc(C)c(C(=O)Nc2ccccc2)s1 | 2.9% |
| O=C(CCSc1nccn1Cc1ccccc1)N1CCOCC1 | 1.1% |
| CCOC(=O)N1CCN(C(=O)c2ccc3c(=O)n(Cc4ccc(OC)cc4)c(=S)[nH]c3c2)CC1 | -5.0% |

Gathered by group, the entries above with bromine (2)
| Molecule | HSD17B inhib |
| --- | --- |
| CC(=O)Nc1coc2ccc(Br)cc12 | 12.1% |
| Cn1c(=O)[nH]c(=O)c2c1nc(Br)n2CCCO | 9.1% |

Next part:
| Molecule | HSD17B inhib |
| --- | --- |
| COC(=O)c1cc2c(s1)CS(=O)C2 (stereo not drawn) | 0.2% |
| CCN(CC)C(=O)CSc1nnc(-n2nc(C)cc2C)c2ccccc12 | 0.5% |
| COc1ccc(CCNC(=O)C2CCCN(C(=O)N(C)C)C2)c(OC)c1 (stereo not drawn) | 15.1% |
| Cc1ccc(CN2CC(C(=O)Nc3ccc4c(C)cc(=O)oc4c3)CC2=O)cc1 (stereo not drawn) | 6.31µM* |
| CN1C(=O)c2cccc(NCCCN3C(=O)c4ccccc4C3=O)c2C1=O | 1.7% |
| Cc1ccc2cc3cc(C(=O)N4CCCCC4C)oc3nc2c1 (stereo not drawn) | ? |
| COC(=O)c1ccc(-n2nnnc2SCc2ccccc2OC)cc1 | -0.1% |
| CCN1CCN(C(c2cccs2)C(C)NC(=O)c2c(F)cccc2F)CC1 (stereo not drawn) | 5.2% |
| CN(C)CCCN1C(=O)C(=O)/C(=C(/O)c2ccc3c(c2)OCO3)C1c1ccco1 (stereo not drawn) | 6.0% |
| CN1C(=O)c2c(sc3c2CC(C)(C)SC3)N2CCN=C12 | 31.6µM* |
| N#Cc1c2n(c3c(=O)n(CC(=O)c4ccc(Br)cc4)cnc13)CCCC2 | -6.0% |
| CCn1c(SCc2cccnc2)nc2c1c(=O)n(C)c(=O)n2C | 4.8% |
| O=C(CSc1nnc(-c2ccccc2)n1Cc1ccccc1)NC1CC1 | 8.1% |
| Cc1cnc(CNc2nc(-c3c(C)noc3C)nc3ccccc23)cn1 | -6.1% |
| COc1ccc(C2C3C(=O)N(Cc4ccccc4)C(=O)C3ON2c2ccccc2)c(OC)c1OC (stereo not drawn) | -11.6% |
| Cn1c(=O)c2cc(S(=O)(=O)NCCC(=O)NCC3CCCO3)ccc2n(C)c1=O (stereo not drawn) | -4.0% |
| COC(=O)c1ccc(CSc2ccc3nnc(-c4cccnc4)n3n2)o1 | 10.2% |

A draw from above in order of number of heavy atoms, highest first.
| Molecule | HSD17B inhib |
| --- | --- |
| O=c1[nH]c2cc3c(cc2cc1CN(CC1CCCO1)S(=O)(=O)c1ccccc1)OCCO3 (stereo not drawn) | 31.6µM* |
| COc1cccc(OC)c1NC(=O)C1CCCN1C(=O)NCc1ccccc1 (stereo not drawn) | 3.2% |
| O=C(CSc1nnc(CSc2nc3ccccc3s2)o1)NC1CCCCC1 | 0.0% |
| CC1(C)CC2CC(C)(CN2C(=O)C23CCC(C)(C(=O)O2)C3(C)C)C1 (stereo not drawn) | 4.4% |
| CN1C(=O)c2c(sc3c2CC(C)(C)SC3)N2CCN=C12 | 31.6µM* |
| CC(=O)N1C(=O)N(C)C2C1N(C)C(=O)N2C(C)=O (stereo not drawn) | -5.5% |
